# TRPML1 ag: agonists of human TRPML1 channel; actives 0.12% (n = 410,000); Q9GZU1; AID 624414; TRPML1-expressing cells, Ca2+ dye fluorescence, FDSS; host cell line not named in the record; reference of the full effect not given here; activation, % (test concentration not listed); in the data active = activation above about 50%; inconclusive = about 30% to 50%; inactive = below about 30%; further: 0% is about no effect; the text of the record puts the active cut at 80%
#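 Tetracycline-induced TRPML1-DL cells are seeded and incubated overnight before loading with a no-wash Ca2+ dye and quencher. Agonist activity is taken from the 110 s fluorescence read following compound pin-transfer on an FDSS, before EC80 54-4 challenge.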
# Six1-Eya2 inh: blocks human Six1 binding to Eya2 | Q15475+O00167 | AlphaScreen GST-Six1/His-Eya2 binding, biochemical; hits give low values; control for the full effect not named in the record | activity change, % (concentration not given with the values) | actives 0.56% (n = 360,000); in the data active = activity change below about -65%; inconclusive = about -30% to -65%; inactive = above about -30%; further: on the % scale 0 is the no-effect control and ±100 the full control effect
# Target sequence (O00167 whole entry, looked up): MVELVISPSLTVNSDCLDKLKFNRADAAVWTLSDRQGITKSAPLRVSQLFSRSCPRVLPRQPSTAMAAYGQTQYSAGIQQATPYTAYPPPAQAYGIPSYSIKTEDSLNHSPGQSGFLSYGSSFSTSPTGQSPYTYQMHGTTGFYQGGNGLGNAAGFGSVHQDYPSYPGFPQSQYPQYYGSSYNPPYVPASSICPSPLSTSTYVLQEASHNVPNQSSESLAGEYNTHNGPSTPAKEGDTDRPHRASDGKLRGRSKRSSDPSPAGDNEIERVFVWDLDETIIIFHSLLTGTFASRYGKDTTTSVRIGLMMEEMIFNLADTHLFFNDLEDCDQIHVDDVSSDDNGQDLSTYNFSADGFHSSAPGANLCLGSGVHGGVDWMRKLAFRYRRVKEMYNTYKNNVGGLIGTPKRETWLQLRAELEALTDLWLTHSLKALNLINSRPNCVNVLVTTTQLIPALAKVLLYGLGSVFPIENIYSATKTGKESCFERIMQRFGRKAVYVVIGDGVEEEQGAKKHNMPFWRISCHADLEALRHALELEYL
# Target sequence (Q15475 whole entry, looked up): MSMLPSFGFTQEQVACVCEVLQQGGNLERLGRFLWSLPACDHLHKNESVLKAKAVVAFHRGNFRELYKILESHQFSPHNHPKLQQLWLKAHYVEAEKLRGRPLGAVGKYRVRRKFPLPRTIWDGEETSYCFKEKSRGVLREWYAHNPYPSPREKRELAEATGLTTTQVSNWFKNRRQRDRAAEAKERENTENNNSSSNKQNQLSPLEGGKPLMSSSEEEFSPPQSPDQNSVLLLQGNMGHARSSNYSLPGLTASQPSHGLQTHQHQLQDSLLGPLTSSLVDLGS
#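 Six1/Eya2 binding was read as AlphaScreen signal after compounds were pinned into GST-Six1 plus His-tagged Eya2 (5X stock 250/500 nM) in pH 8.0 Tris/NaCl/TCEP buffer, beads added, then incubated 1 h, 37 C, dark.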
# TRPML1 blocker: blocks the human TRPML1 channel; TRPML1-inducible cells, Ca2+ dye fluorescence, FDSS; hits give low values; inhibition of EC80 agonist-evoked calcium signal; activity change, negative = inhibition, % (no concentration beside the values); actives 0.02% (n = 390,000); AID 624415; in the data active means activity change below about -50%; inconclusive means about -30% to -50%; inactive means above about -30%;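 further: stimulus is agonist 54-4 at its EC80 concentration; on the % scale 0 is the no-effect control and ±100 the full control effect; compound concentration not given in the record; the text of the record puts the active cut at -80%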
#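 Calcium fluorescence in TRPML1-DL cells induced overnight with Tet: a 110 s read after compound pin addition, then a 110 s antagonist read after challenge with 54-4 at 4 uM final (EC80).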
# TRPV1 potentiator: enhances activation of the human vanilloid receptor TRPV1 | actives 0.02% (n = 320,000) | TRPV1-expressing cells, Fluo-8 calcium influx, capsaicin EC20 potentiation; host cell line not named in the record; control for the full effect not named in the record | potentiation, % at 8.33 µM; active means potentiation above 80%; inconclusive means 30% to 80%; inactive means below 30%; further: 0% is about no effect
#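 Fluo-8 calcium influx in TRPV1-expressing cells, kinetic read (ex 480/em 520 nm). Compound added and read 3 min for agonist activity, followed by capsaicin at EC20 final and 2 min further read for enhancement.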
# D2 potentiator: potentiates the human D2 dopamine receptor allosterically; AID 624464; DiscoveRx D2 beta-arrestin cells, luminescence, 90 min; 100% = 57 uM dopamine signal; potentiation, % (no concentration beside the values); P14416; actives 0.23% (n = 360,000); active = potentiation of 50% or more; inconclusive = 30% to 50%; inactive = 30% or less;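 further: compound concentration not given in the record; tested on top of an EC20 dose of dopamine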
#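 PathHunter D2 cells, attached overnight at 37 deg C, received compound in DMSO plus dopamine at EC20 (50 nM final) for 90 min at 37 deg C. Beta-arrestin recruitment was read as luminescence after 1 h with detection reagent at ambient temperature.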
# CtBP-E1A blk: CtBP/E1A binding inhibition | AlphaScreen GST-E1A/His-CtBP binding, 1536-well; hits give low values; control for the full effect not named in the record | activity change, % (concentration not given with the values) | actives 0.49% (n = 340,000); in the data active means activity change below about -65%; inconclusive means about -30% to -65%; inactive means above about -30%; further: on the % scale 0 is the no-effect control and ±100 the full control effect
#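 AlphaScreen with 125 nM GST-E1A and 125 nM His-CtBP (5X stocks) in Tris pH 8.0, 300 mM NaCl, BSA, Tween 20, TCEP. Compounds preincubated 2 h at 37 deg C, then glutathione donor/nickel acceptor beads added for 1 h at 37 deg C in dark.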
# The depositor's hits bear a star; ? = inconclusive; nt = no result given; & = joins results of further samples. Compounds were not picked by outcome; about 0.95% have a hit in one of these screens.
SMILES	TRPML1 ag	Six1-Eya2 inh	TRPML1 blocker	TRPV1 potentiator	D2 potentiator	CtBP-E1A blk
CCOC(=O)c1ccc(N2C(=O)C(C)=C(C)C2=O)cc1	0.0	3	1	-9	-23	1
COc1ccccc1NC(=S)N(Cc1ccc(C(=O)O)cc1)Cc1ccc(OC)c(OC)c1	-0.1	5	6	10	-9	nt
C/C(Cn1nnc2ccccc21)=N\OC(=O)c1cc(F)c(F)cc1Cl	3.7	3	-13	-5	0	0
CNS(=O)(=O)c1cccc(C(=O)OCC(=O)c2ccc(S(=O)(=O)N3CCCCC3)cc2)c1	0.8	6	-11	17	-27	3
Cc1cccc(-n2c(C)cc(C)c(C#N)c2=O)c1	-0.7	5	-13	5	-2	2
Cc1ccc(CNc2nc(NCc3ccccc3)nc3ccsc23)c(C)c1	3.2	-23	nt	nt	-37	-19
CC(C)N(Cc1nc(COc2ccccc2)no1)Cc1nccn1C	0.7	-3	7	2	-11	nt
O=C(COC(=O)c1cc(-c2cccs2)nn1-c1ccccc1)Nc1ccc(F)c([N+](=O)[O-])c1	1.8	-8	-5	4	-9	nt
CN1C(=O)c2ccccc2C(C(=O)O)C1c1cccc(Cl)c1 (configuration not stated)	0.2	-8	9	1	-4	4
O=C(CNC(=O)c1ccccc1Br)N/N=C/c1cccs1	0.5	-10	-7	5	-4	nt
O=C(c1ccccc1)c1ccc(OCC(O)CN2CCN(S(=O)(=O)N3CCCCC3)CC2)cc1 (configuration not stated)	2.8	-1	12	-11	4	-4
O=C1CC(c2ccc(F)cc2)CC(O)=C1C=NCCN1CCNCC1 (configuration not stated)	1.0	6	4	nt	-12	2
Cc1ccsc1CN(C)C(=O)CN1C(=O)NC2(CCCc3ccccc32)C1=O (configuration not stated)	0.9	-1	46	14	0	5
Cn1c(-c2ccc(Br)o2)nc2cc(Br)ccc21	2.9	-8	21	-6	-23	9
Cc1cc(C)n(CCC(=O)N/N=C/c2cccc([N+](=O)[O-])c2)n1	-0.6	5	31	11	-18	nt
c1ccc(C2=Nc3ccccc3NC(c3ccccc3)C2)cc1 (configuration not stated)	0.4	-1	13	5	-12	2
CC1CC(=O)C=C(O)C1C(=O)OC(C)(C)C (configuration not stated)	0.2	12	-2	7	-10	4
CCSc1ncc(Cl)c(C(=O)Nc2sc3c(c2C(=O)NCc2cccnc2)CCCC3)n1	0.0	1	16	11	3	7
O=C(CNC(=O)c1ccccc1F)c1ccccc1	-0.2	5	-22	-9	-3	-8
CCCCCCCC1=NN(c2ccc(S(=O)(=O)O)cc2)C(=O)C1N=O (configuration not stated)	0.0	0	-4	nt	-15	0
CCN(CC)Cc1c(C(=O)OC)nnn1-c1nonc1N	-0.3	13	12	-5	-17	0
Cc1cc(C)n2c(NC3CCCCC3)c(-c3ccccn3)nc2n1	-0.8	-78*	nt	nt	nt	?
CC(C)Cn1c(=O)c2ccccc2c2ccccc2c1=O	2.8	-6	70	-8	-10	-7
CCOC(=O)CCNC(=O)Nc1ccc2nc(C)n(Cc3ccccc3Cl)c(=O)c2c1	1.1	-3	-16	4	-5	?
Nc1nc2ccccc2n1C(=O)c1cccs1	-0.1	0	-11	9	-5	-3
COc1ccc(CCNC(=O)C(CCC(N)=O)NS(=O)(=O)c2ccc(Cl)cc2)cc1OC (configuration not stated)	nt	-11	nt	3	-1	-4
O=C(C1CCCN(Cc2ccccc2F)C1)N1CCCC1 (configuration not stated)	nt	22	nt	1	0	nt
CCCCC(=O)Nc1ccc(C(=O)Nc2cc(C(F)(F)F)ccc2Cl)cc1	-0.2	11	13	-22	-11	8
COc1ccccc1NC(=O)NC(=O)N(C(C)C)S(C)(=O)=O	0.2	-1	-2	?	-11	-2
O=C(Nc1ccc(Cl)cc1Cl)c1ccc2c(=O)n3c(nc2c1)CCC3	17	?	10	7	-5	?

# Some values from the results shown.
# Nc1nc2ccccc2n1C(=O)c1cccs1 in CtBP-E1A blk shows -3
# O=C(C1CCCN(Cc2ccccc2F)C1)N1CCCC1 (configuration not stated) in Six1-Eya2 inh shows 22

# Additional compounds:
SMILES	TRPML1 ag	Six1-Eya2 inh	TRPML1 blocker	TRPV1 potentiator	D2 potentiator	CtBP-E1A blk
Cc1cc(N2C(=O)C(=O)/C(=C(/O)c3ccccc3)C2c2cccs2)no1 (configuration not stated)	-0.4	7	-4	-4	-3	11
COc1cc(NC(=O)c2cncc(-c3ccc(C#N)cc3)c2)cc(C(=O)Nc2cccc(C(F)(F)F)c2)c1	0.1&0.0	13&8	-7&8	8	10&0	4&8
Cc1ccccc1-c1cc(C(=O)NCc2cccc(C(F)(F)F)c2)nn1CC1CC(c2cccc([N+](=O)[O-])c2)=NO1 (configuration not stated)	0.6	-5	-12	-2	-13	-6
COc1ccc(C2=NOC(C(=O)Nc3cccnc3)C2)cc1 (configuration not stated)	1.1	1	5	-4	11	-20
CCc1nn(C(CC)C(=O)NCCCN2CC(C)CC(C)C2)c(=O)c2cc3oc(C)cc3n12 (configuration not stated)	0.8	-4	7	-4	-35	2
COc1ccc(NC(=O)COC(=O)[C@@H]2CCCN2C(=O)c2cccs2)c(OC)c1	1.0	0	-3	4	12	1
Cc1ccccc1N1CCN(C2CCCN(C(=O)CCC(F)(F)F)C2)CC1 (configuration not stated)	0.9	-3	39	12	-3	8
COc1ccc2nc(/N=C(\N)NC(=O)Nc3ccccc3)nc(C)c2c1	-0.2	-22	43	-21	2	-4
Cc1ccc(-c2n[nH]c(=O)c3ccccc23)cc1S(=O)(=O)NCCN1CCOCC1	-0.3	-1	-6	-5	-8	10
CCCNc1cc(C)oc(=O)c1C(=O)CCC	-0.5	1	-2	2	-17	13
CCOC(=O)c1ccc(NC(=O)CNC(=O)C23CC4CC(CC(C4)C2)C3)cc1	-0.7	-4	1	-4	-4	1
CCOc1cc(/C=N\NC(=O)c2c(C)nc3ccccn23)ccc1O	0.3	-22	0	7	1	-6
CN(C)c1ccc(P(=O)(OC2CCCCC2)C(O)c2ccncc2)cc1 (configuration not stated)	0.1	2	-12	-2	-2	0
CCNS(=O)(=O)c1ccc(C(=O)OCc2cc(=O)oc3cc(OC)ccc23)cc1	-0.9	-7	7	2	1	-3
CC(C)[C@H](NC(=O)c1ccco1)C(=O)OCC(=O)Nc1cccc(F)c1	0.6	0	-13	1	-5	2
C/C(=N/NC(=O)c1ccccc1O)c1ccc(N2C(=O)C3CCCCC3C2=O)cc1 (configuration not stated)	-0.4	-8	3	0	-23	-2
COc1ccc(-c2cnc3c(NC(C)=O)cc(-c4ccccc4CN(C)C)cn23)cc1OC	-0.6	-3	nt	nt	-11	-3
COc1ccccc1NC(=O)c1ccc(NC(=O)COC(=O)C2(C)CC2(Cl)Cl)cc1 (configuration not stated)	1.7	-3	1	-4	2	1
COc1cccc(-c2nn(C)c3sc(C(=O)NCc4ccc(C)o4)cc23)c1	-0.3	?	-1	-10	2	?
CNC(=O)N(O)C1N(NC(=O)Nc2ccccc2)C(=S)SC1(C)C (configuration not stated)	0.3	1	39	nt	0	7
O=C1CC2CC1C(C(=O)O)C2C(=O)O (configuration not stated)	0.5	16	18	nt	-9	-2
CCOC(=O)C1=C(O)/C(=C\c2sccc2C)N=C1C	0.0	-11	-2	-4	-31	-8
Cc1cc(O)c(C=Nc2ccc(N3CCOCC3)cc2)c(C)c1Cl	-0.2	-1	-6	1	0	0
N#CC1=C(Nc2ccc(Br)cc2)CCC1	0.3	0	23	-17	-8	-16
CCCCC(=O)Nc1cccc(-c2cn3ccsc3n2)c1	-0.6	-20	-9	2	?	-21
COC(=O)c1cnc(Nc2cc(C)ccc2OC)c2ccccc12	nt	58	nt	0	2	35
Fc1cccc(-c2cc3nc4c(c(N5CCC6(CC5)OCCO6)n3n2)CCCC4)c1	0.3	-1	1	-1	1	5
Cc1cc2ncn(S(=O)(=O)N3CCOCC3)c2cc1C	0.4	1	5	1	-4	2
COc1cc(/C=C2\C(=O)ON=C2c2ccccc2)cc(Cl)c1O	2.6	-13	-9	-7	-11	4
COc1ccc(C(=O)NNC(=O)c2cccc(F)c2)cc1	-0.5	5	1	-15	-7	6
CCOC(=O)c1c(C)[nH]c(C(=O)OCc2ccc(F)cc2)c1C	5.5	4	-9	-5	-6	1
OC[C@@H]1CN(Cc2ccccc2)C[C@H](n2cnc3c(N4CCCC4)ncnc32)O1	-0.6	7	nt	nt	-11	-23
O=C(O)CCC(=O)N1N=C(c2cccs2)CC1c1ccc(Br)cc1 (configuration not stated)	1.1	8	-20	-15	-8	nt
O=C1C(C2=NC(C(=O)O)C3C(=O)N(c4ccc(Cl)cc4)C(=O)C23)=C(O)c2ccccc21 (configuration not stated)	-0.8	0	13	-2	-8	6
Clc1ccc(Cc2noc(Cc3ccccc3)n2)cc1Cl	1.3	50	12	-12	-3	39
Cc1ccc(N2C(=O)CC(N(CCc3ccccc3)C(=S)Nc3ccc(N(C)C)cc3)C2=O)cc1 (configuration not stated)	-0.8	-9	4	-3	-1	-7
CSc1nc(C)cc(NC(N)=O)n1	-0.1	9	-11	6	10	5
CC1(C)CC(=O)C/C(=N\NC(=O)c2cccs2)C1	0.1	-2	-12	27	-8	-5
Cc1nn(-c2ccccc2)c(C)c1C(=O)NNC(=O)C(F)(F)F	0.5	-14	-1	4	2	-17
CCCOc1ccc(Cl)cc1CN1CCOCC1	-0.8	8	-5	-3	-6	-2
CCCc1cc(=O)[nH]c(SCC(=O)N2CCCC2=O)n1	1.3	-1	-2	-10	0	9
Cc1sc2nc(C(C)C)nc(SCC(=O)N3c4ccccc4CC3C)c2c1C (configuration not stated)	0.6	-1	-4	-1	-10	-1
COc1ccccc1C(=O)Nc1nc2nc(-c3ccccc3)cc(=O)n2[nH]1	1.3&-0.1	-6	0&21	-10	-13	-5
CCOC(=O)C1(Cc2ccccc2)CCCN(CCCn2cccn2)C1 (configuration not stated)	-1.5	2	9	-3	-6	1
Cc1cc(/C=C(/C#N)c2nc3ccccc3[nH]2)c(C)n1-c1cccc([N+](=O)[O-])c1	0.3	0	96	17	-11	?

# Another view of part of the listing above.
# Order of values – TRPML1 ag	Six1-Eya2 inh	TRPML1 blocker	TRPV1 potentiator	D2 potentiator	CtBP-E1A blk
- Cc1sc2nc(C(C)C)nc(SCC(=O)N3c4ccccc4CC3C)c2c1C (configuration not stated)
  0.6	-1	-4	-1	-10	-1
- COc1ccccc1C(=O)Nc1nc2nc(-c3ccccc3)cc(=O)n2[nH]1
  1.3&-0.1	-6	0&21	-10	-13	-5

# For reference, 4 of the compounds above:
SMILES	TRPML1 ag	Six1-Eya2 inh	TRPML1 blocker	TRPV1 potentiator	D2 potentiator	CtBP-E1A blk
Clc1ccc(Cc2noc(Cc3ccccc3)n2)cc1Cl	1.3	50	12	-12	-3	39
Cc1ccc(N2C(=O)CC(N(CCc3ccccc3)C(=S)Nc3ccc(N(C)C)cc3)C2=O)cc1 (configuration not stated)	-0.8	-9	4	-3	-1	-7
CSc1nc(C)cc(NC(N)=O)n1	-0.1	9	-11	6	10	5
CC1(C)CC(=O)C/C(=N\NC(=O)c2cccs2)C1	0.1	-2	-12	27	-8	-5

# Bioassay records: PubChem, National Center for Advancing Translational Sciences (NCATS)
